SARS PLP yeast – qHTS of Yeast-based Assay for SARS-CoV PLP | AID 485353, 2010 | 330,000 tested, 0.19% active | Potency, µM (titrated, usually from 32.9 µM), without a hit: at the top dose activity, positive = growth rescue | S. cerevisiae expressing SARS-CoV PLpro, growth rescue; control for the full effect not named in the record; further: 0% is about no effect; nearly all actives have a fitted effect of over 55% in size; growth read by luminescence after 48 h
Cruzain Triton – qHTS Assay for Promiscuous and Specific Inhibitors of Cruzain (with detergent) | Cruzipain (Trypanosoma cruzi), P25779 | purified cruzain, Z-FR-AMC fluorescence, 0.01% Triton | Potency, µM, without a hit: max response, negative = inhibition, actives largely listed as inhibitors | 200,000 tested, 0.43% active | AID 1478, 2009; active means well fitted curve in the direction sought with a large enough effect; inconclusive means small, poorly fitted or top-dose-only effect, or another doubt; inactive means no such curve, though single readings can be large; an effect the other way counts as inactive or inconclusive;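 further: plate controls were neutral wells for no effect and buffer without enzyme for full effect; nearly all actives have a fitted effect of over 40% in size; top concentration of the series not given in the record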
Target sequence (P25779 123-467 limits assumed): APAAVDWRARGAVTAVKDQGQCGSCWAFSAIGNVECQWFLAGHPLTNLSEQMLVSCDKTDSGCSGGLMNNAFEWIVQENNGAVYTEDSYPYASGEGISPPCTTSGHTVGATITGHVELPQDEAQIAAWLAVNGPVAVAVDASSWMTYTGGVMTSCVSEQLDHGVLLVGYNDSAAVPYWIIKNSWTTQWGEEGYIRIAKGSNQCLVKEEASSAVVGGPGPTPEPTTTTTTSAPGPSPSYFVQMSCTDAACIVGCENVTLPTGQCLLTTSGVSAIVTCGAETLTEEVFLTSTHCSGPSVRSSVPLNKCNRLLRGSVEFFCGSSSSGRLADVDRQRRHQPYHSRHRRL
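15 min RT preincubation of 1.5 nM cruzain with compound, then 2 uM Z-FR-AMC added; kinetic AMC fluorescence, 60 s delta. Triton X-100 0.01%, pH 5.5.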
Lassa entry inh – qHTS for Inhibitors of binding or entry into cells for Lassa Virus; Lassa virus pseudotype entry inhibition, cell reporter; control for the full effect not named in the record; Potency, µM (series often up to 37.9 µM), for inactives: at the highest dose activity change, negative = inhibition, most hits filed as inhibitors; 300,000 tested, 1.2% active; active means well fitted inhibition curve with a large enough effect; inconclusive means small, poorly fitted or top-dose-only effect, or effect the other way; inactive means flat fitted curve, though single readings scatter; tested in HEK293 cells; further: on the % scale 0 is the no-effect control and ±100 the full control effect; nearly all actives have a fitted effect of over 50% in size; luciferase read-out
RE007 growth inh – qHTS Assay for Inhibitors of the HIV-1 protein Vpr | AID 651644, 2012 | S. pombe RE007 Vpr strain, BacTiter-Glo ATP luminescence, 24 h; control for the full effect not named in the record | Potency, µM (highest dose often 92.2 µM), for the others: at the highest dose activity change, negative = less growth | 360,000 tested, 0.21% active; active = well fitted falling curve with a large enough effect; inconclusive = small, poorly fitted or top-dose-only effect; inactive = no such curve, though single readings can be large or run the other way;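 further: on the % scale 0 is the no-effect control and ±100 the full control effect; nearly all actives have a fitted effect of over 50% in size; the assay follows cell death caused by Vpr and the record does not say whether a fall means rescue or toxicity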
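Fission yeast RE007 carrying one integrated HIV-1 vpr copy, seeded at OD 0.01 in PMG+AL medium with 23 nL pinned compound. Grown 24 h at 30 degrees; viability read by BacTiter-Glo luminescence after 5 min.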
MARV entry inh – qHTS for inhibitors of binding or entry into cells for Marburg Virus. 300,000 tested, 1.8% active. Marburg virus pseudotyped entry inhibition, cell reporter; control for the full effect not named in the record; about a third of the inactives were read at about 46 µM. Potency, µM (top dose mostly 37.8 µM), inactives show at the top dose activity change, negative = inhibition, actives largely listed as inhibitors; active = well fitted inhibition curve with a large enough effect; inconclusive = small, poorly fitted or top-dose-only effect, or effect the other way; inactive = flat fitted curve, though single readings scatter; tested in HEK293 cells; about a fifth of its hits are not listed in these tables; further: on the % scale 0 is the no-effect control and ±100 the full control effect; luciferase read-out
NS1 function inh – qHTS Assay for Inhibitors of Influenza NS1 Protein Function | S. cerevisiae slowed by influenza A NS1, growth recovery by OD600 | Potency, µM (top dose mostly 46.1 µM), inactives show at the top dose activity, positive = more growth | 270,000 tested, 0.4% active; further: actives are rising curves; nearly all actives have a fitted effect of over 50% in size
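OD600 was taken as the measure of yeast growth restored by compound in an NS1-expressing S. cerevisiae strain. Cells had been washed out of glucose medium and diluted 1:100 into galactose -URA medium, pH 6.0.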
StopGo reporter – High Throughput Screening for Foot and Mouth Disease Virus Antivirals; human cells with a luciferase reporter of 2A StopGo recoding; control for the full effect not named in the record; Potency, µM (top dose mostly 57.9 µM), inactives show at the top dose signal change, negative = less light; 410,000 tested, 1.2% active; active = well fitted falling curve with a large enough effect; inconclusive = small, poorly fitted or top-dose-only effect; inactive = no such curve, though single readings can be large or run the other way; tested in HEK293T cells; further: on the % scale 0 is the no-effect control and ±100 the full control effect; nearly all actives have a fitted effect of over 45% in size; luciferase light after 4 h
Cruzain noTriton – qHTS Assay for Promiscuous and Specific Inhibitors of Cruzain (without detergent); Cruzipain (Trypanosoma cruzi), P25779; Potency, µM, for the others: max response, negative = inhibition, actives largely listed as inhibitors; AID 1476, 2009; purified cruzain, Z-FR-AMC fluorescence, no detergent; 200,000 tested, 2.3% active; active means well fitted curve in the direction sought with a large enough effect; inconclusive means small, poorly fitted or top-dose-only effect, or another doubt; inactive means no such curve, though single readings can be large; an effect the other way counts as inactive or inconclusive;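 further: plate controls were enzyme without inhibitor for no effect and buffer without enzyme for full effect; nearly all actives have a fitted effect of over 40% in size; top concentration of the series not given in the record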
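Detergent-free condition (0.00005% Triton X-100) in acetate buffer pH 5.5 with DTT. 1.5 nM enzyme and compound were pre-mixed 15 min, then 2 uM Z-FR-AMC substrate added; reaction progress from fluorescence change between first and third reads (60 s).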
* hit, by the source's call; ? = inconclusive; . = no result given; & = joins results of further samples; [ ] = remark or other dose. Unless noted, the call rests on the fitted dose curve; in most records, active means well fitted rising curve with a large enough effect; inconclusive means small, poorly fitted or top-dose-only effect; inactive means no such curve, though single readings can be large or run the other way. Potency means the concentration at half of the fitted maximal effect.

SMILES	SARS PLP yeast	Cruzain Triton	Lassa entry inh	RE007 growth inh	MARV entry inh	NS1 function inh	StopGo reporter	Cruzain noTriton
CCn1ncc(-c2ccnc3cc(C(=O)O)nn23)c1C	-9%	.	0%[46.1 µM]	-23%	5%[46.1 µM]	.	-6%	.
O=c1c2cc(O)c(O)cc2oc2cc(O)c(C3OC(CO)C(O)C(O)C3O)c(O)c12 (stereo not given)	1%	-2.7%	.	42%	.	.	0%&6%	1%
CC(=O)C1C(N2CC2)CC2C3CC=C4CC(O)CCC4(C)C3CCC21C (stereo not given)	.	.	?	-11%	?	.	-16%	.
COCCCn1[nH]c2c3c(ccc2c1=O)C(=O)c1ccccc1C3=O	0%	-5.1%	?	?	?	-9%	?	14%
CC(C)(C)CC(=O)NC(=S)NCc1ccco1	2%	.	.	9%	.	3%	9%	.
CCc1ccccc1NC(=O)N1C2CCCC1CC(NC(=O)C(C)(C)C)C2 (stereo not given)	-5%	3.4%	12%	-8%	?	0%	-8%	1%
COc1cccc(/C=C2/Sc3ccc(C(=O)NCCCN4CCCC4)cc3NC2=O)c1	-6%	.	.	0%	.	5%	-15%	.
Cc1ccnc(N2CCC(C(=O)NCc3ccc(F)cc3)CC2)n1	-1%	.	.	0%	.	-13%	6%	.
Oc1cnc2ccccc2c1CN1CCOCC1	15%	-8.9%	14%	-2%	?	1%	-1%	-8%
N#Cc1cc2ccccc2nc1SCc1ccccn1	-20%	-7.2%	3%	-29%	?	-144%	0%	-10%
CCNC(=O)CCn1nc(-c2ccc(C)cc2)c2ccccc2c1=O	1%	.	-22%[46.1 µM]	-1%	?	-3%	-3%	.
CCN(C(=O)c1cc(Cl)ccc1OC)c1ccccc1C	21%	0.2%	-4%	6%	-2%	-8%	-29%	-6%
CCC(C)NC(=O)C1CCN(S(=O)(=O)c2ccc3nc4c(c(C(=O)O)c3c2)CCCCC4)CC1 (stereo not given)	-7%	.	13%[46.1 µM]	15%	12%[46.1 µM]	-6%	1%	.
O=C(CNc1cccc2ccccc12)N/N=C/c1cccc(Oc2ccccc2)c1	-15%	0.3%	-15%	-4%	-32%	-18%	-2%	20µM*
Cc1cccnc1NC(=O)C1CCCN1S(=O)(=O)c1ccc(Cl)cc1 (stereo not given)	-2%	.	2%	0%	10%	5%	-17%	.
COc1ccccc1CNC(=O)COC(=O)Cc1c(Cl)cccc1Cl	23%	-4.8%	.	7%	.	-13%	-16%	-5%
O=C(CSc1nnc(NC(=O)c2ccco2)s1)NC1CCCC1	-6%	-1.6%	6%	1%	13%	0%	15%	-18%
COc1ccc(C)cc1S(=O)(=O)N1c2ccc(C)cc2C2CN(C)CCC21 (stereo not given)	0%	.	?	-6%	?	.	-6%	.
O=C(Cn1c2c(sc1=O)C1c3ccccc3OCC1CS2)Nc1ccc(Cl)c(Cl)c1 (stereo not given)	4%	-1.6%	-15%	5%	-17%	20µM*	-23%	6.3µM*
CC(C)(C)c1ccc(C(=O)NNC(=O)Cc2cccc3ccccc23)cc1	-5%	-0.3%	3%	9%	-24%	-5%	.	-9%

One compound at a time, from the list above.
CCN(C(=O)c1cc(Cl)ccc1OC)c1ccccc1C is listed with SARS PLP yeast = 21%; Cruzain Triton = 0.2%; Lassa entry inh = -4%; RE007 growth inh = 6%; MARV entry inh = -2%; NS1 function inh = -8%; StopGo reporter = -29%; Cruzain noTriton = -6%
CC(C)(C)CC(=O)NC(=S)NCc1ccco1 is listed with SARS PLP yeast = 2%; Cruzain Triton = .; Lassa entry inh = .; RE007 growth inh = 9%; MARV entry inh = .; NS1 function inh = 3%; StopGo reporter = 9%; Cruzain noTriton = .

Remaining list, next part:
SMILES	SARS PLP yeast	Cruzain Triton	Lassa entry inh	RE007 growth inh	MARV entry inh	NS1 function inh	StopGo reporter	Cruzain noTriton
O=C(Cc1ccccc1)c1c[nH]c(C(=O)C(Cl)(Cl)Cl)c1	2%	.	-3%	-18%	-6%	?	?	.
O=C(COc1nsnc1N1CCOCC1)N/N=C/c1ccccc1O	?	-4.2%	?	0%	?	-27%	-4%	7%
CCOc1ccc(N(CC(=O)O)S(=O)(=O)c2cccnc2)cc1	3%	3.4%	.	9%	.	2%	-10%	-6%
O=[N+]([O-])c1cccc(/C=C/c2ccc3cccc(O)c3n2)c1	-2%	.	-3%[46.1 µM]	4%	-24%[46.1 µM]	-2%	15%	.
CC(=O)CC(C)(C)n1c[n+](C)nn1	-1%	3.2%	0%	3%	2%&2%	5%	.	-4%
CCOC(=O)CSc1nc2cc3c(cc2c(=O)n1CCCC(=O)NCCc1ccc(OC)c(OC)c1)OCO3	.	2.9%	?	.	.	.	-21%	2%
Cc1cccc(CC(=O)NCC2CCCCC2)c1	-15%	.	.	11%	.	-38%	58%[activator]	.
Nc1[nH]nc2nc(-c3ccccc3)[nH]c(=O)c12	0%	.	.	-8%	.	1%	0%	.
COc1cccc2sc(=NC(=O)CS(=O)(=O)c3ccc(F)cc3)n(C)c12	0%	.	-1%	6%	-4%	.	?	.
Cc1ccc(C(=O)NNC(=O)CSc2nnc(C3CC3)n2C)cc1	1%	.	29%	10%	19%[46.1 µM]	10%	17%	.
O=c1oc2ccccc2c(O)c1C=Nc1cccnc1	-1%	.	-22%	-2%	-21%	-6%	-13%	.
CC(C)c1nc(-c2ccccn2)no1	5%	6.9%	?	6%	1%	?	58%[activator]	1%
O=C(c1cc(F)ccc1F)C1CCCN(C(=O)CCCN2CCCCC2=O)C1 (stereo not given)	0%	.	.	12%	.	-3%	-5%	.
Cc1ccc(C(=O)Nc2ccccc2C(=O)OCc2cc(=O)n3nc(C4CC4)sc3n2)cc1	.	0.0%	4%[46.1 µM]	.	.	.	-3%	5%
CC(C)Cn1c(SC(C)C(=O)Nc2ccc3c(c2)OCCO3)nc2ccccc2c1=O (stereo not given)	-1%	-0.9%	12µM*	-6%	?	8%	.	-12%
Cc1ccc(-c2cc(C(F)F)n3ncc(C(=O)N4CCN(c5cccc(C)c5C)CC4)c3n2)cc1	.	-5.3%	?	-14%	?	13%	0%	-27%
CC(C)Cn1c(N)c(C(=O)COC(=O)COc2cccc(C(F)(F)F)c2)c(=O)n(C)c1=O	0%	.	.	4%	.	21%	-2%	.
COCCCNC(=O)c1cccc2c(=O)c(C)c(-c3ccccc3)oc12	17%	0.2%	-2%	4%	8%	-18%	-24%	1%
CCOc1cccc(CNCCO)c1OCc1ccc(Cl)cc1	13%	-3.4%	-26%	23%	?	-4%	?	4%
S=c1nc(-c2ccccc2Cl)n(Cc2cccnc2)c2c1CCCC2	20%	-12%	-1%	7%	13%	-9%	11%	-18%
N#Cc1ccc(CSc2nnc(-c3ccc(Br)cc3)o2)cc1	.	1.3%	20%[46.1 µM]	.	-2%[46.1 µM]	.	-12%	-5%
CC(C)(C)NC(=O)COC(=O)CCC(=O)c1ccc(Cl)cc1	1%	.	10%	-10%	3%[46.1 µM]	.	-10%	.
c1ccc2c(c1)CCN(c1ncnc3c1[nH]c1ccccc13)C2	-15%	-23%	?	-18%	?	0%	11µM*	-29%
CC1(C)OC2CCN3C(C(O)COS3(=O)=O)C2O1 (stereo not given)	2%	.	.	8%	.	0%	6%	.
CCn1cc(/C=N/NS(=O)(=O)c2ccc(OC)cc2)c(C)n1	5%	3.3%	11%	18%	-3%	2%	1%	-2%
O=C(NC1CCCC1)c1ccc(CS(=O)(=O)c2ccc(Br)cc2)o1	-5%	-0.2%	.	-6%	.	-34%	?	3%
CCOc1ccccc1NC(=O)NCc1ccccc1	1%	.	-17%[46.1 µM]	-17%	13%[46.1 µM]	.	12%	.
CCOc1ccc(CCNC(=O)c2nn(C)c3c2CS(=O)(=O)c2ccccc2-3)cc1	9%	.	.	5%	.	8%	?	.
Cc1ccccc1CNC(=O)C(=O)NCC(c1cccs1)S(=O)(=O)c1ccc(Cl)cc1 (stereo not given)	.	-2.8%	?	.	.	.	-16%	23%
O=c1cc(N2CCN(Cc3ccccc3)CC2)c(-c2ccccc2)n[nH]1	1%	10%	-18%	15%	-29%	15%	8%	0%
Cc1cc(C)c(C)c(S(=O)(=O)NCc2ccc(C(=O)N3CCN(C)CC3)cc2)c1C	13%	.	-18%	-13%	-14%	15%	3%	.
CC(C)C(=O)Nc1c2c(nn1-c1ccccc1)CSC2	5%	.	.	-1%	.	7%	-16%	.
CCCCn1c(=O)n(CC(O)c2ccccc2)c(=O)c2c1ncn2C1CCCC1 (stereo not given)	-22%	1.9%	9%	-9%	13%	?	-16%	18%
Cc1cccc(CSCCNC(=O)CN2C(=O)c3ccccc3S2(=O)=O)c1	1%	.	-15%	-4%	-17%[46.1 µM]	2%	20%	.
CCCCc1ccc(NC(=O)C2CCN(S(C)(=O)=O)CC2)cc1	-2%	-1.2%	-1%	4%	20%	1%	-29%	5%
Cc1ccc(N2CCN(S(=O)(=O)N3CCCCC3)CC2)cc1C	0%	.	-4%	2%	12%[46.1 µM]	-5%	-11%	.
O=C(NCCc1ccc(O)cc1)c1ccc(Cl)cc1	5%	-1.2%	-3%	0%	15%	-4%	51%[activator]	-5%
COc1ccc(C)cc1N(CC(=O)NC1CCCC1)C(=O)CCC(=O)Nc1cc(C)on1	-6%	-1.7%	-13%	9%	10%[46.1 µM]	-8%	-9%	9%
O=c1c2ccccc2nc(-c2ccc(Cl)cc2Cl)n1CCCn1ccnc1	-5%	0.5%	1%	3%	?	-8%	?	0%
CCN(CC)c1ccc(NC(=O)CCc2nnc3ccc(N4CCCC4)nn23)c(C)c1	-1%	.	.	-6%	.	-10%	-17%	.
O=C(CN1CCN(CCO)CC1)Nc1ccc(Cl)cc1C(=O)c1ccccc1	-3%	-1.7%	?	6%	?	-3%	4%	-10%
O=C(Cc1ccccc1)NNS(=O)(=O)c1ccc([N+](=O)[O-])cc1	9%	0.4%	8%	10%	?	30%	-5%	7%

Compound activity: PubChem, National Center for Advancing Translational Sciences (NCATS)
